Compound activity deposited in PubChem BioAssay by Southern Research Institute.
Mtb growth = Confirmatory growth inhibition assay against Mycobacterium tuberculosis H37Rv, potency (AID 1949); most inactive calls were filed without a number and no value below 0 was filed; inhibition, % at 10 µg/mL; hits with a dose series show IC50 in µg/mL; actives 1.6% (n = 100,000);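 active means confirmed in a dose series; inconclusive means about 50% or more but not retested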;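 further: bacteria grown 7 days with compound before Alamar blue readout; 0% = untreated bacteria and 100% = reference antibiotic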
* = called active by the depositor; i = inactive; ? = inconclusive.

Molecule,Mtb growth
O=C(CSc1ncnc2sc(-c3ccccc3)cc12)Nc1ccccc1Cl,i
S=C(Nc1cccc(Cl)c1Cl)Nc1nn(Cc2ccc(Cl)c(Cl)c2)cc1Cl,i
CCOc1csc2nc(C)cc(C)c12,i
C=CCn1c(Cc2ccc(OC)cc2)nnc1SCC(=O)N1CCN(c2ccccc2)CC1,i
OC(COCc1ccc2c(c1)OCO2)CN1CCCCC1 (stereo not given),2%
COCc1cc(C)nc2sc(C(=O)Nc3ccccc3F)c(N)c12,i
COc1ccc(C)cc1S(=O)(=O)Nc1ccc(F)c(Cl)c1,i
O=S(=O)(NCc1ccccn1)c1ccc(Cl)c(Cl)c1Cl,7%
O=C(NC(=S)Nc1ccc(N2CCN(C(=O)c3cccs3)CC2)cc1)c1ccco1,6%
O=C(Nc1ccc2c(c1)OCCO2)c1cc(-c2ccccc2)nc2ccccc12,i
CCOC(=O)c1c(-c2ccc(C)cc2)csc1N1C(=O)CCC1=O,i
O=c1[nH]nc(-c2ccccc2)c2ccccc12,i
COc1cc2c(cc1/C=C/[N+](=O)[O-])OCO2,?
COc1ccc(-c2csc(NNC(C)=O)n2)cc1,i
O=C(c1cccc(F)c1)N1CCN(c2ccccc2[N+](=O)[O-])CC1,i
Cc1cccc(C(C)C)c1NS(=O)(=O)c1ccc(Br)s1,1%
CC(=O)Nc1ccc(NC(=O)c2cnn3c(C(F)F)cc(-c4ccc(C)cc4)nc23)cc1,i
O=C(CSc1nc2ccccc2s1)Nc1ccccc1C(=O)c1ccccc1,i
Cc1cc(Cl)ccc1OCCCN1CCCCC1,2%
COc1ccc(C2CC(=O)C3=C(C2)Nc2ccccc2N(C(=O)CCC(=O)O)C3c2cccnc2)cc1OC (stereo not given),i

Shown field by field: part of the list above
> Cc1cccc(C(C)C)c1NS(=O)(=O)c1ccc(Br)s1
  Mtb growth: 1%
> O=C(CSc1nc2ccccc2s1)Nc1ccccc1C(=O)c1ccccc1
  Mtb growth: i
> COc1cc2c(cc1/C=C/[N+](=O)[O-])OCO2
  Mtb growth: ?
> Cc1cc(Cl)ccc1OCCCN1CCCCC1
  Mtb growth: 2%

Later entries.
Molecule,Mtb growth
Cc1ccc(S(=O)(=O)Nc2ccc(S(=O)(=O)Nc3cc(Cl)ccc3C)cc2)cc1,i
Cn1c(=O)c2c(nc(N3CCCCC3)n2CCSc2nc3ccccc3o2)n(C)c1=O,i
COCCNCCOc1ccccc1-c1ccccc1,i
CC(NC(=O)CC1Sc2ccccc2NC1=O)c1ccccc1 (stereo not given),i
Cc1cc(C)c(NC(=O)c2ccccc2Br)c(C)c1,12%
O=C(Nc1nc2ccc([N+](=O)[O-])cc2s1)c1sc2ccccc2c1Cl,i
CCOc1ccc(C(=O)NC(=S)Nc2c(C)cc(C)cc2C)cc1,1%
Cc1ccc(OCc2nnc(NC(=O)C(C)(C)C)s2)cc1,i
Cc1cccn2c(=O)c(C=O)c(N3CCN(Cc4ccccc4)CC3)nc12,i
CC1CCN(C2CCN(Cc3cccc4ccccc34)CC2)CC1,i
O=[N+]([O-])c1ccc(NC(=S)NC2CCN(Cc3ccccc3)CC2)cc1,37%
Cn1ncc(NC(=S)Nc2ccc(F)c(Cl)c2)c1C(N)=O,i
S=C(NCc1ccc(Cl)cc1)Nc1ccc2c(c1)OCCO2,i
O=C(CN(c1ccc(I)cc1)S(=O)(=O)c1ccccc1)Nc1ccccc1C(=O)N1CCCC1,i
COc1cccc(CNc2ccc3c(c2)ncn3C)c1OC,i
CCN(CC)C(=O)C1CC2CCCC(C1)C2=O (stereo not given),i
CC(C)C(=O)Nc1cccc(-c2cnc3ccccc3n2)c1,i
Cc1nnc2sc(-c3ccc(NC(=S)NC(=O)c4cc5ccccc5o4)cc3)nn12,i
C=CCn1c(SCc2csc(C)n2)nc2sc3c(c2c1=O)CCCC3,?
O=S(=O)(Nc1ccc(Br)cn1)c1ccc(F)cc1,i
CN(Cc1ccccc1)C1CCN(C(=O)Cc2ccccc2)CC1,i
O=C(Nc1ccc(N2CCOCC2)cc1N1CCOCC1)c1ccc(Cl)cc1,i
CCN(CC)c1ccc(NC(=O)CSc2cc(C)c3ccccc3n2)cc1,17%
COc1ccc(C(=O)NC(c2c(C)[nH]n(-c3ccccc3)c2=O)(C(F)(F)F)C(F)(F)F)cc1,i
O=C1CC(C(=O)Nc2c(Cl)cccc2Cl)C2(CCCC2)O1 (stereo not given),i
Cc1cc(OCCCn2ccnc2)ccc1Cl,1.9µg/mL*
C=CCn1c(SCC(=O)NCc2ccccc2)nc2scc(-c3ccco3)c2c1=O,i
Cc1cc(OCc2nc(-c3ccc([N+](=O)[O-])cc3)no2)cc(C)c1Cl,i
COc1ccc(Cl)cc1-c1n[nH]c(=S)n1Cc1ccccc1,i
Nc1nc(SCc2ccc(F)cc2)n[nH]1,i
CC1CN(CCCOc2ccccc2-c2ccccc2)CC(C)O1 (stereo not given),i
O=S(=O)(c1ccc(Cl)cc1)N1CCN(Cc2ccco2)CC1,2%
Cc1c(O)ccc(NC(=O)c2ccccc2)c1C,i
C=CCNC(=O)CCCOc1ccc(OC)cc1,i
O=C(COc1ccc(F)cc1)Nc1ccc(-n2cnnn2)cc1,i
CCn1c(SCCC(C)C)nc2ccccc2c1=O,0%
COc1cccc(NC(=O)CN(c2ccccc2C)S(C)(=O)=O)c1,i
O=[N+]([O-])c1ccc(-c2noc(-c3ccccc3I)n2)cc1,i
CCOc1ccc(-c2cc(C(=O)N3CCN(c4ccccc4)CC3)c3ccccc3n2)cc1,i
COc1ccc(OC)c(NC(=O)COc2ccc(C(=O)Nc3cccc(C(F)(F)F)c3)cc2)c1,i
CN(CC(=O)NCc1ccncc1)S(=O)(=O)c1cc(Cl)ccc1Cl,i
Fc1ccc(-c2csc(Nc3ncccn3)n2)cc1,i
CCOc1cc(CNc2ccc(Cl)c(Cl)c2)cc(Cl)c1OCC(=O)NC(C)(C)C,11%
COC(=O)c1sccc1NC(=S)Nc1ccc(OC)c(OC)c1,i
COCCn1c(C)cc(C(=O)CSc2nnc3ccc4ccccc4n23)c1C,i
Cc1ccc(S(=O)(=O)C(CC(=O)c2ccccc2)c2ccc(Cl)cc2Cl)cc1 (stereo not given),i
CCc1cc(I)ccc1NC(=O)c1ccc([N+](=O)[O-])o1,1.6µg/mL*
Cc1[nH]nc(-c2ccc(O)cc2O)c1-c1ccc(Br)cc1,i
O=C(Cn1cc(C(=O)c2cccs2)c2ccccc21)NCC1CCCO1 (stereo not given),i
O=C(CN(c1cccc(C(F)(F)F)c1)S(=O)(=O)c1ccccc1)NCc1ccccn1,i

Other compounds
compound	Mtb growth
CC1=C(C)CC(C(=O)Nc2sc3c(c2C(N)=O)CCCC3)C(C(=O)O)C1 (stereo not given)	i
Cc1c(NC(=O)COc2ccc(C(C)C)cc2)c(=O)n(-c2ccccc2)n1C	i
Cc1ccc(C)c(-c2cc(C(=O)NN)c3ccccc3n2)c1	i
CC(=O)Nc1ccc(NC(=O)C2CCN(S(=O)(=O)c3ccc(F)cc3)CC2)cc1	i
S=C(Nc1ccccc1)Nc1ccccn1	i
Cc1cc(NS(=O)(=O)c2ccc(NC(=O)c3ccncc3)cc2)no1	i
CCOc1ccccc1Nc1ncnc(N)c1[N+](=O)[O-]	3%
COc1ccc(N(CC(=O)Nc2cccc(C)c2C)S(=O)(=O)c2ccccc2)cc1OC	i
CCc1ccccc1NC(=O)C(Cl)(Cl)Cl	?
CCN(CC)c1ccc2cc(C(=O)NCc3ccccc3)c(=O)oc2c1	i
COc1ccc(N2CCN(C(=O)COc3ccc(Cl)cc3C)CC2)cc1	10%
CCC(=O)Nc1ccc(Cl)c(NC(=O)COc2cccc(C)c2C)c1	i
CCCNC(=S)Nc1ccc(Cl)cc1C	i
O=C(COc1ccccc1Br)N1CCOCC1	i
O=C1CC(c2cccc(F)c2)c2cc3c(cc2N1)OCCO3 (stereo not given)	i
COc1ccc(-c2nnc3c4cnn(-c5ccccc5)c4ncn23)cc1	i
CC(=O)N(C)c1ccc(OCC(O)COc2ccc(N(C)C(C)=O)cc2)cc1	i
CCOC(=O)CCC(=O)Nc1ccc(F)c(Cl)c1	i
COc1ccccc1Cc1nc(-c2ccc([N+](=O)[O-])cc2)no1	i
CCc1cccc(OCCCCN(C)Cc2ccccc2)c1	i
CC(=O)c1ccc(NC(=O)Nc2cccc(C(=O)O)c2)cc1	i
COc1ccc(C(=O)c2coc3ccc(C)cc3c2=O)cc1	i
COCCCNCCOc1ccc(C)cc1Br	i
CC(=O)N1N=C(c2ccccc2)OC12CCCCCC2	i

Some of these compounds in order of molecular weight, rising.
compound	Mtb growth
CCCNC(=S)Nc1ccc(Cl)cc1C	i
CC(=O)N1N=C(c2ccccc2)OC12CCCCCC2	i
CCOC(=O)CCC(=O)Nc1ccc(F)c(Cl)c1	i
CC(=O)c1ccc(NC(=O)Nc2cccc(C(=O)O)c2)cc1	i
O=C(COc1ccccc1Br)N1CCOCC1	i
COc1ccccc1Cc1nc(-c2ccc([N+](=O)[O-])cc2)no1	i
CC(=O)N(C)c1ccc(OCC(O)COc2ccc(N(C)C(C)=O)cc2)cc1	i

Continued:
compound	Mtb growth
CC(C)COc1ccc(C(=O)NCCc2nc3ccccc3[nH]2)cc1	i
CCC(C)C(Nc1ncnc2sc3c(c12)CCC3)C(=O)O (stereo not given)	i
CCCC(=O)Nc1nnc(SC(CC)C(=O)Nc2ccc(C(C)=O)cc2)s1 (stereo not given)	3%
CC1CCc2c(sc(NC(=O)C(C)N3C(=O)c4ccccc4C3=O)c2C#N)C1 (stereo not given)	i
COC(=O)c1ccccc1NC(=S)NC(=O)/C=C/c1ccccc1	3%
COc1cccc(NC(=O)CC2CCCCC2)c1	0%
O=C(NCc1cccc(CNC(=O)c2c(Cl)cccc2Cl)c1)c1c(Cl)cccc1Cl	i
COc1ccc(N2CCN(CC(O)COc3ccc(C)cc3C(C)(C)C)CC2)cc1 (stereo not given)	4.1µg/mL*
Cc1ccccc1C1C(/C=C2\SC(=S)NC2=O)=C(c2cccs2)Oc2ccccc21 (stereo not given)	17%
O=C(O)c1ccc(Cl)c(NC(=S)NC(=O)c2cccc3ccccc23)c1	1%
Cc1ccc(NC(=O)c2cc(-c3ccccc3)nc3ccccc23)c(OC(F)F)c1	0%
CC(C)c1ccc(OCC(=O)Nc2ccc(F)cc2)c(Br)c1	24%
CCN(C(=O)c1ccc(C)c(Br)c1)c1ccccc1	0%
Cc1ccc(S(=O)(=O)N(CC(=O)N(C)C)c2ccc(F)cc2)cc1	i
COc1ccc(S(=O)(=O)N(CC(=O)Nc2ccc(F)cc2F)Cc2ccccc2)cc1	1%
CCOC(=O)N1CCN(c2c(-c3ccccc3)c3cc(Cl)ccc3[nH]c2=O)CC1	i
O=C(COc1ccc(F)cc1)N1CCCC1	i
CCCCNc1ccc(C(=O)Nc2ccc(OC)cc2)cc1[N+](=O)[O-]	1%
Cc1ccc(OCC(=O)c2cc(C)c(O)cc2O)cc1	5%
Cc1ccc(S(=O)(=O)N2CCC(C(=O)Nc3cc(C)ccc3C)CC2)cc1	i
COc1cccc(NC(=O)CSC2=C(C#N)C(c3ccc(Cl)cc3)C(C(C)=O)=C(C)N2)c1 (stereo not given)	i
COc1ccccc1N=C(N)Nc1cccc(C(F)(F)F)c1	i
CC(C)(Oc1ccc(Cl)cc1)C(=O)Nc1ccc(S(N)(=O)=O)cc1	i
O=S(=O)(NCc1ccco1)c1cccc(F)c1	i
Cc1ccc(S(=O)(=O)CCSc2nc(C)cc(C)c2C#N)cc1	1%
NC1=NC2(CCCC2)N=C(Nc2ccc(Cl)cc2)N1	i
N#Cc1c(NC2(C(F)(F)F)N=C3SCCN3C2=O)sc2c1CCCC2 (stereo not given)	i
FC(F)(F)c1ccc(NCc2cccnc2)nc1	i
O=C(C1CCCCC1)N1CCN(c2ncccn2)CC1	i
Cc1sc(NC(=O)c2ccco2)c(C(=O)O)c1C	i
CCc1sc(NC(=O)c2cc(OC)c(OC)cc2[N+](=O)[O-])nc1-c1ccccc1	i
COC(=O)C(NC(=O)Nc1ccc(C(C)(C)C)cc1)C(C)C (stereo not given)	i
O=C(c1ccc(S(=O)(=O)NCC2CCCO2)cc1)N1CCN(c2ccccc2F)CC1 (stereo not given)	i
Cc1ccc(S(=O)(=O)N2C(=O)CCC2C(=O)Nc2ccc(F)cc2)cc1 (stereo not given)	i
O=C(COc1ccc(S(=O)(=O)N2CCOCC2)cc1)N1CCN(c2ccccc2)CC1	i
CC(=O)c1ccc(NC(=O)NNC(=O)Cc2ccc(Cl)c(Cl)c2)cc1	i
COc1ccc(C(=O)NC(=S)Nc2cccc3cccnc23)cc1OC	42%
COc1ccc(OC)c(NC(=S)Nc2cccc(Cl)c2C)c1	i
Cc1c(NC(=S)NC(=O)c2ccco2)cccc1C(=O)O	i
CCn1cnc2cc(NC(=O)c3ccc(C)cc3)ccc21	i
NC(=O)Cc1cc(=O)oc2cc(O)ccc12	i
Cc1ccc(C)c(NC(=O)C(Cc2ccccc2)N2C(=O)c3ccccc3C2=O)c1 (stereo not given)	i
CCc1ccccc1N1CCN(S(=O)(=O)c2ccc(Br)cc2)CC1	4%
CC(=O)c1ccc(OCCN2CCCCC2)cc1	0%
O=C(CCSc1ccc(Cl)cc1)N1CCN(Cc2ccc3c(c2)OCO3)CC1	i
CCOc1ccc(C(=O)N2C(C)CCCC2C)cc1OCC (stereo not given)	i
CCOC(=O)c1c(-c2ccccc2)csc1NC(=O)C12CCC(C)(C(=O)O1)C2(C)C (stereo not given)	5%
Cc1cc(C)n(C(=O)COc2c(C)cccc2C)n1	i
O=C1c2ccc(-c3nc4ccccc4c(=O)o3)cc2C(=O)N1Cc1ccc(Cl)cc1	i
CC(=O)Nc1ccc(C(=O)Nc2ccc(Cl)cc2C(=O)c2ccccc2)cc1	i

Not all compounds are listed, so the mix of outcomes need not match the whole.
